KCNQ2 inh = KCNQ2 channel blockers in CHO-K1 cells – cell-based, FluxOR thallium flux, B-score, primary screen (AID 2156). actives 1.1% (n = 310,000). O88943. 20 min; hits give low values; only compounds with negative scores are shown here; some inactives read as strong as hits. B-score at 10 µM;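 active means fluorescence ratio B-score at most minus 3 library SDs, with starting brightness B-score within 2 library SDs, cut at about -5.5 in these data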
Target sequence (O88943 whole entry, looked up): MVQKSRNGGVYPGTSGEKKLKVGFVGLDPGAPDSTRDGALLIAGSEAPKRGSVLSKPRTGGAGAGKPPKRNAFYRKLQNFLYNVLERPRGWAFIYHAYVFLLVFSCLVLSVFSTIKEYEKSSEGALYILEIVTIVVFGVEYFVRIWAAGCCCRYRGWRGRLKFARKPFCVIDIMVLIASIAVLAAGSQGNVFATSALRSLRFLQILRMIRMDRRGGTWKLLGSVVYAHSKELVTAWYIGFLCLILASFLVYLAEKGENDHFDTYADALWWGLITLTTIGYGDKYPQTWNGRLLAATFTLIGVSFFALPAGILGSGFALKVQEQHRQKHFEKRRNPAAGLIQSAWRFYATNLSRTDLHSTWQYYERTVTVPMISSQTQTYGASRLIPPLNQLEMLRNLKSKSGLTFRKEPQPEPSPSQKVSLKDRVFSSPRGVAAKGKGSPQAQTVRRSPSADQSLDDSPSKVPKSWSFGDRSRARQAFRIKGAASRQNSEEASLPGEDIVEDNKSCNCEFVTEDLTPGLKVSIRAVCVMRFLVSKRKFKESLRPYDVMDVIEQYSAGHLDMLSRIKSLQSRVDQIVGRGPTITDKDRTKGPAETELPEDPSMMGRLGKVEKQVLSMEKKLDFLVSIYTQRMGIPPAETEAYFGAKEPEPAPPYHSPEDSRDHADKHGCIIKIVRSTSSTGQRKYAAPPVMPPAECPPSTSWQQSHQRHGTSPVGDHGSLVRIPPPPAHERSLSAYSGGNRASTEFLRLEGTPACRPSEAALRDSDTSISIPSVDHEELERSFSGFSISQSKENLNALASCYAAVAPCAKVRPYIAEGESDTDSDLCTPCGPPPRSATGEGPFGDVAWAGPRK
KCNQ2 inh baseline = also measured in KCNQ2 inh; calls as there; B-score; measured here: initial fluorescence intensity artifact check;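 brightness before thallium and not channel activity; 0 = typical well and far values either way flag optical interference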
* hit, by the source's call; i = inactive. Some of the compounds tested; rates above refer to the full screens.

KCNQ2 inh	KCNQ2 inh baseline	Compound
i	-0.15	COc1ccccc1OCC(=O)Nc1cc2c(cc1C(=O)O)OCCCO2
i	1.71	CCCn1c(-c2cccs2)nc2nc3ccccc3nc21
i	2.82	Cc1cc(/C=N/NC(N)=S)c(O)c(/C=N/NC(N)=S)c1
i	-0.03	O=C(COc1ccc(Cl)cc1)NCCSc1ccccc1
i	-0.85	CCc1cccc(N(C(=O)c2csnn2)C(C(=O)NC(C)(C)CC)c2ccccn2)c1 (stereo not given)
i	2.12	COC1(OC)N=C(N)C2(C#N)C(c3cccc(Oc4ccccc4)c3)C12C#N (stereo not given)
i	-1.28	CCCCNS(=O)(=O)c1ccc2nc(SCC(=O)Nc3sccc3C#N)[nH]c2c1
i	-0.66	CC(Oc1ccccc1)C(=O)Nc1nc2c(s1)C(=O)CC(C)(C)C2 (stereo not given)
i	-0.3	CC1C(=O)N2CCCc3cc(S(=O)(=O)NCc4ccccc4Cl)cc1c32 (stereo not given)
i	-1.15	Cc1ccc2nc(Cl)c3cc(C(=O)NCCCN4CCCC4)sc3c2c1
i	-1.64	CCOC(=O)Nc1ccc2c(c1)N(C(=O)C(C)N1CCCC1)c1ccccc1CC2 (stereo not given)
i	1.05	COc1ccccc1CNS(=O)(=O)c1c(C)[nH]c(C)c1C(=O)N1CCCCC1
i	0.28	O=C1c2ccccc2-c2cccc(C(=O)N3CCCCC3)c21
i	-0.89	CN(C)c1ccc(/C=N/n2ncc3ccccc32)cc1
i	0.2	COc1ccccc1N1CCN(C(=O)Cn2nc(C(F)(F)F)c3c2CCC3)CC1

Overlap with the part before: 5 entries, followed by the next part.
KCNQ2 inh	KCNQ2 inh baseline	Compound
i	-1.64	CCOC(=O)Nc1ccc2c(c1)N(C(=O)C(C)N1CCCC1)c1ccccc1CC2 (stereo not given)
i	1.05	COc1ccccc1CNS(=O)(=O)c1c(C)[nH]c(C)c1C(=O)N1CCCCC1
i	0.28	O=C1c2ccccc2-c2cccc(C(=O)N3CCCCC3)c21
i	-0.89	CN(C)c1ccc(/C=N/n2ncc3ccccc32)cc1
i	0.2	COc1ccccc1N1CCN(C(=O)Cn2nc(C(F)(F)F)c3c2CCC3)CC1
i	4	COc1ccc(-c2nc3c4ccccc4[nH]c(=O)n3n2)cc1
i	1.08	CCCN(CC(=O)Nc1ccccc1C)C(=O)/C=C/c1ccc(S(=O)(=O)N2CCCCCC2)cc1
i	-2.59	COc1ccc(OC)c(Nc2ncnc3c2cnn3-c2cccc(C)c2)c1
i	-0.27	CC(Nc1ccccc1)c1cccnc1 (stereo not given)
i	1.15	Cc1noc(C)c1COc1ccc(C(=O)N2CCCC(C(N)=O)C2)cc1 (stereo not given)
i	2.32	COc1cccc(C(=O)/C=C/Nc2ccc(S(=O)(=O)Nc3cc(OC)nc(OC)n3)cc2)c1
i	-1.44	CN1C(=O)/C(=C/c2cccc([N+](=O)[O-])c2)C(=O)N1c1ccccc1
i	0.14	Clc1ccccc1CN(Cc1ccccc1)c1ncnc2nc[nH]c12
i	0.88	CN(C(=O)COC(=O)c1c2c(nc3ccccc13)CCCC2)c1c(N)n(Cc2ccccc2)c(=O)[nH]c1=O
i	0.73	CC(C)[C@H](NC(=O)NC1CCCc2ccccc21)C(=O)O (stereo not given in full)
i	0.04	CN(C)C(=O)NC(Nc1ccc(Cl)cc1Cl)C(Cl)(Cl)Cl (stereo not given)
i	2.22	Cc1nnsc1S(=O)c1ccc(Cl)cc1 (stereo not given)
i	-2.76	CCc1cccc2c(C(=S)N3CCCC3)c[nH]c12
i	1.7	Cc1ccc(C(=O)Nc2cc(C)c(OCC(=O)N3CCOCC3)c(C)c2)cc1
i	-0.85	CC(C)c1ccc(Nc2cnn(C34CC5CC(CC(CC(=O)O)(C5)C3)C4)c(=O)c2Cl)cc1

(further entries)
KCNQ2 inh	KCNQ2 inh baseline	Compound
i	0.01	O=C(O)CC1(CC(=O)NCc2csc(-c3cccs3)n2)CCCCC1
i	0.55	COc1ccc(C(CC(=O)N2CCCCC2)C(C)C)cc1 (stereo not given)
i	-0.39	Cc1cc(=O)oc2cc(OCC(=O)OCC(=O)N(C)C3CCS(=O)(=O)C3)ccc12 (stereo not given)
i	3.12	CC(C)OC(=O)C1C2C=CC3(CN(CC4CCCO4)C(=O)C13)O2 (stereo not given)
i	-0.15	CC(C)C[C@H](NC(=O)c1nc[nH]c1C(=O)N1CCN(c2ccccc2)CC1)C(=O)OC(C)(C)C
i	-0.05	Cc1ccc(N(C)S(=O)(=O)c2ccc3[nH]cc(C(=O)NCCCN4CCOCC4)c(=O)c3c2)cc1C
i	-0.54	OCC(C#CCN1CCCCC1)NCc1ccccc1 (stereo not given)
i	-0.04	S=C(NCC1CCCO1)c1ccc(Br)cc1 (stereo not given)
i	-1.44	O=C(Nc1ccc(Br)cc1)c1cc(-c2ccc3c(c2)OCO3)on1
i	-0.89	O=c1cc(Nc2ccc3c(c2)OCO3)[nH]c(=O)n1-c1ccc(Br)cc1
i	0.54	O=S1(=O)CCC(N=Nc2c(O)n(Cc3ccccc3)c3ccccc23)C1 (stereo not given)
i	-0.32	COc1ccc(CCNC(=O)CCn2cccc2)cc1OC
i	0.25	O=C(Nc1nnc(-c2ccccc2)s1)c1cc(S(=O)(=O)N2CCOCC2)c(Cl)cc1Cl
i	-1.66	CN1CCC(=O)N(CCSc2ccc(Br)cc2)CC1
i	1.19	COCCNCCCOc1ccc(Cl)cc1Br

Sorted by count of non-hydrogen atoms (low to high): some entries from above.
KCNQ2 inh	KCNQ2 inh baseline	Compound
i	3.12	CC(C)OC(=O)C1C2C=CC3(CN(CC4CCCO4)C(=O)C13)O2 (stereo not given)
i	0.25	O=C(Nc1nnc(-c2ccccc2)s1)c1cc(S(=O)(=O)N2CCOCC2)c(Cl)cc1Cl
i	-0.05	Cc1ccc(N(C)S(=O)(=O)c2ccc3[nH]cc(C(=O)NCCCN4CCOCC4)c(=O)c3c2)cc1C

Additional compounds
KCNQ2 inh	KCNQ2 inh baseline	Compound
i	2.43	COc1ccc(C[C@@H]2CN3C(=NC[C@@H]3C)N2C[C@H](C)NC(=O)CCC2CCCCC2)cc1
i	1.81	Cn1c(=O)c(/C(N)=N/OC(=O)c2ccccc2)cn(-c2ccccc2)c1=O
i	-0.07	CCOC(=O)C(C)Oc1ccc(=O)n(-c2ccccc2)n1 (stereo not given)
i	-0.61	CN(C)c1ccc(N=Nc2ccc(S(N)(=O)=O)cc2)cc1
-6.29*	0.47*	CCOC(=O)C1=C(CNCc2ccccc2Cl)NC(=O)NC1c1cccc([N+](=O)[O-])c1 (stereo not given)
i	-0.45	COc1ccc(NCC(=O)Nc2cc(S(=O)(=O)N3CCOCC3)ccc2N2CCOCC2)c(OC)c1
i	-0.9	O=C(CSc1nccc(=O)[nH]1)NCc1ccc(Cl)cc1
i	0.26	CCC(C)(C)NC(=O)C(c1ccc(OC)cc1)N(C(=O)CCC(=O)Nc1cc(C)on1)C(C)(C)C (stereo not given)
i	0.71	Cc1cccc(CS(=O)(=O)c2ncc(Cl)c(C(=O)NCc3ccccc3)n2)c1
i	-0.69	O=c1c2ccccc2nnn1COc1ccc(Cl)cc1Br
i	0.01	CC(C)=CCN1CCN(Cc2ccoc2)CC1CCO (stereo not given)
i	-0.1	CC(C(=O)N1CCCC1)N1CCN(c2ccccc2O)CC1 (stereo not given)
i	0.81	CCOC(=O)N1CCN(C(=O)CCn2c(=S)[nH]c3ccsc3c2=O)CC1
-6.72*	0.62*	COc1ccc(CN(CCC(c2ccccc2)c2ccco2)C(=O)c2ccco2)cc1 (stereo not given)
i	-0.19	Cc1cccc(C(=O)NC(=S)Nc2ccc(S(=O)(=O)N(C)c3ccccc3)cc2)c1

(list continues)
KCNQ2 inh	KCNQ2 inh baseline	Compound
i	4.23	Cc1cc(C(=O)Nc2nnc(C3CCCCC3)s2)no1
i	-0.26	CC(C)Cn1c(CCNC(=O)c2ccco2)nc2ccccc21
i	-0.3	COc1cccc(CSc2nc3cc4c(cc3cc2C)OCCO4)c1
i	-0.75	COc1ccccc1C(=O)Nc1ccnn1C1CCN(C(=O)C2CCOC2)CC1 (stereo not given)
i	0.36	CCC(C)NC(=O)C1c2cc(OC)c(OC)cc2C(=O)N(C)C1c1cccs1 (stereo not given)
i	1.85	Cc1ccc(C(=O)c2ccc([N+](=O)[O-])cc2)cc1
i	0.5	CCC(=O)c1c(NC(CC)CO)cc(C)oc1=O (stereo not given)
i	1.91	COC(=O)C1(Cc2cc(-c3cccc(Br)c3)no2)CCN(C(=O)OC(C)(C)C)CC1
i	-0.22	O=C(NCc1c(F)cccc1F)c1cc(COc2c(F)cccc2F)on1
i	0.58	COc1ccccc1NC(=S)NCCSc1ccc(C)cc1
i	0.43	COc1ccc(C(NC(=O)CC(C)C)NC(=O)CC(C)C)cc1OC
i	-0.96	CC(=O)Oc1cccc(/C=C2\Sc3ccccc3C2=O)c1
i	0.28	CC(C)N1C(=O)C(O)(C2COC(C)(C)CC2=O)c2ccccc21 (stereo not given)
i	1.01	COc1ccc(CCNC(=O)CSc2ncc(C(=O)Nc3ccccc3)c(=O)n2C)cc1
i	-0.07	CCCN(CC(=O)Nc1ccc(Cl)cc1Cl)C(=O)/C=C/c1cc(OC)ccc1OC

Given as tab-separated lines: two of the compounds above
SMILES	KCNQ2 inh	KCNQ2 inh baseline
COc1cccc(CSc2nc3cc4c(cc3cc2C)OCCO4)c1	i	-0.3
COc1ccccc1C(=O)Nc1ccnn1C1CCN(C(=O)C2CCOC2)CC1 (stereo not given)	i	-0.75

Other records.
KCNQ2 inh	KCNQ2 inh baseline	Compound
i	0.99	Cc1ccc(N(CC(=O)Nc2ccc(F)c(Cl)c2)S(=O)(=O)c2c(C)noc2C)cc1
i	0.36	Cc1ccc(NC(=O)c2cccc(OC(F)F)c2)c(OC(F)F)c1
i	2.07	CCc1ccc(N(CC(=O)N2CCCCCC2)S(C)(=O)=O)cc1
i	-0.46	Cc1ccc(C(=O)OCc2ccc3c(c2)OCO3)cc1S(=O)(=O)N1CCCCC1
i	-0.69	CN1C(C(=O)Nc2ccc(OC(F)(F)F)cc2)=CC(c2ccco2)=NS1(=O)=O
i	-0.7	CC(NC(=O)OCc1ccccc1)C(=O)NCC(=O)NC(Cc1ccc(OC(C)(C)C)cc1)C(=O)OC(C)(C)C (stereo not given)
i	0.06	CCOC(=O)N1CCC(N(CCCOC)C(=O)Nc2cccc(OC)c2)CC1
i	-0.59	CCc1ccc(Nc2nnc(SCC(=O)N(C)CC(=O)Nc3ccccc3CC)s2)cc1
i	3.99	CCOC(=O)N1CCN(C(=O)C2CCN(Cc3nc(-c4ccccc4C)oc3C)CC2)CC1
i	-0.51	O=C(O)Cc1c(-c2ccccc2)c2cc(Br)ccc2[nH]c1=O
i	-0.08	CN=c1scc(-c2ccccc2F)n1/N=C/c1ccc(O)c(O)c1O
i	0.24	O=C(NCc1ccccn1)C(=O)NCC1OCCN1C(=O)c1ccc(Cl)cc1 (stereo not given)
i	-1.83	COc1ccc(CN(C(=O)c2cc(=O)c3ccccc3o2)C2CCS(=O)(=O)C2)cc1 (stereo not given)
i	0.08	O=C(Nn1cnnc1)C1Cc2ccccc2CN1S(=O)(=O)c1ccc(F)cc1 (stereo not given)
i	-0.56	CN(C(=O)c1ccccc1-c1ccccc1C(=O)O)c1ccccc1

(continued)
KCNQ2 inh	KCNQ2 inh baseline	Compound
i	-1.36	CCN(CC)CCN(C(=O)c1ccc2c(c1)OCCO2)c1nc2cc(C)cc(C)c2s1
i	0.15	CC(Oc1ccc(Br)cc1)C(=O)N(C)CC(=O)Nc1ccc(N2CCOCC2)cc1 (stereo not given)
i	2.54	Cc1ccccc1C(=O)NNC(=O)CSc1nc2ccccc2c(=O)[nH]1
i	0.96	CCCCOc1ccc(/C=C(\C#N)C(=O)NC2CC2)cc1
i	-0.09	COc1c2ccoc2nc2c(OC)c(O)ccc12
i	-0.31	CCN1CCN(c2ccc(S(=O)(=O)N3CCCCC3)cc2NC(=O)c2sccc2C)CC1
i	-0.01	CC(NC(=O)c1ccccc1)C(=O)OCC(=O)N1c2ccccc2Sc2ccccc21 (stereo not given)
i	2.54	CC(=O)Nc1ccc(NS(=O)(=O)c2cc(-c3n[nH]c(=O)c4ccccc34)ccc2C)cc1
i	-0.09	Nc1ccc(-c2nc3ccc(N)cc3s2)cc1
i	-0.09	CC(=O)NCCC(=O)N1CCc2c([nH]c3ccccc23)C1c1cccc(C)c1 (stereo not given)
i	1.08	COC(=O)c1ccc(-c2ccc(F)cc2)nc1C
i	-0.14	S=C(NCc1ccccn1)Nc1ccc(Cl)c(Cl)c1
i	-0.19	Cc1ccc(-n2c(O)c(/C=C3/C(c4ccccc4)=Nc4ccccc43)c(=O)[nH]c2=O)cc1
i	0.64	COc1ccc(C(=O)Nc2ccnn2C2CCN(Cc3ccncc3)CC2)cc1
i	0.83	CCCCn1c(=O)n(CC(=O)Nc2c(CC)cccc2CC)c(=O)c2c1nc(CO)n2CCC

Carrying on:
KCNQ2 inh	KCNQ2 inh baseline	Compound
i	0.13	CC1(C)CC(=O)c2c(O)cc(OCC(=O)NCCc3ccc(S(N)(=O)=O)cc3)cc2O1
i	-0.02	CCOC(=O)CC(NS(=O)(=O)c1ccc2[nH]c(=O)sc2c1)c1ccc(C)cc1 (stereo not given)
i	1.57	O=C1[C@@H]2CSCN2C(=O)CN1Cc1c(F)cccc1Cl
-5.75*	-1.69*	CCOC(=O)CSc1nc2ccccc2c(=O)n1C1CCCC1
i	-1.39	COc1cccc(NC(=O)CSc2ccc(-c3ccco3)nn2)c1
i	1.44	Cc1nnc(N2C(=O)C(O)=C(C(=O)c3ccco3)C2c2cccc3ccccc23)s1 (stereo not given)
i	0.36	O=C(N/N=C(\c1ccccc1)c1cccnc1)C(O)(c1ccccc1)c1ccccc1
i	0.73	Cc1cc(C)c(OCCN(C)Cc2ccccc2)c(Br)c1
i	-1.11	COc1ccc(O)c(/C=N/NS(=O)(=O)c2ccc(C)cc2)c1

Screening data (PubChem)
